Ub-GFP proteasome – ubiquitin-GFP accumulation via proteasome inhibition. Ubiquitin-GFP reporter cells, proteasome inhibition, GFP fluorescence; response scale: untreated = 0%, 10 µM MG-132 = 100%. Potency, µM (top dose mostly 45.9 µM), inactives show at the top dose activation (GFP accumulation), actives largely listed as activators. 67,000 tested, under 10 active. AID 526; active = well fitted activation curve with a large enough effect, not every such curve was filed as active; also: potency is read from the fitted curve at half-maximal effect
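Proteasome block read as GFP accumulation: ubiquitin(G76V)-GFP U2OS cells exposed to compound (2.9 nM–46 uM) for 4 hr at 37 C. Normalization used untreated cells as 0% and 10 uM MG-132 as 100%; concentration-response curves fitted.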
BRCT PPI red – inhibitors of human BRCA1 BRCT-phosphoprotein interaction (red fluorophore) | BRCT-phosphopeptide binding, red fluorescence polarization | P38398 | Potency, µM (series often up to 76.9 µM), for the others: at the top dose activity change, negative = inhibition, hits mostly inhibitors | AID 892 | actives 0.03% (n = 75,000); also: % is scaled to controls: 0 for no effect and ±100 for the full control effect
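Rhodamine-labelled pBACH1 10-mer (100 nM) bound to BRCT domain (100 nM) at pH 7.3; compounds incubated 12 min room temperature, polarization read. Free peptide defines full inhibition; unlabelled decapeptide titrated as control.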
BRCT inh green – BRCA1 BRCT-phosphoprotein interaction inhibition; BRCA1 BRCT-phosphopeptide binding, green fluorescence polarization; Potency, µM (series often up to 76.9 µM), for the others: at the highest dose activity change, negative = inhibition, most hits filed as inhibitors; actives 0.05% (n = 75,000); AID 875;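 also: potency is read from the fitted curve at half-maximal effect; plate controls were peptide without protein for full effect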
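Fluorescence polarization: His-tagged BRCT (~35 kDa BRCA1 C-terminus, 250 nM) bound to 100 nM fluorescein-labeled phosphorylated 10-aa BACH1 peptide, pH 7.3 phosphate buffer with DTT and Tween 20. Compounds incubated 12 min at room temperature; inhibition read as lowered polarization.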
USP2a inhib – USP2a (human) protease inhibition | O75604 | USP2a enzymatic assay, qHTS inhibition | Potency, µM (doses to about 38.3 µM), without a hit: at the highest dose activity change, negative = inhibition, usual class: inhibitors | actives 0.1% (n = 60,000);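 also: potency is read from the fitted curve at half-maximal effect; nearly all actives have a fitted effect of over 60% in size; plate controls were DMSO for no effect and NEM full inhibition control for full effect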
Target sequence (O75604 whole entry, looked up): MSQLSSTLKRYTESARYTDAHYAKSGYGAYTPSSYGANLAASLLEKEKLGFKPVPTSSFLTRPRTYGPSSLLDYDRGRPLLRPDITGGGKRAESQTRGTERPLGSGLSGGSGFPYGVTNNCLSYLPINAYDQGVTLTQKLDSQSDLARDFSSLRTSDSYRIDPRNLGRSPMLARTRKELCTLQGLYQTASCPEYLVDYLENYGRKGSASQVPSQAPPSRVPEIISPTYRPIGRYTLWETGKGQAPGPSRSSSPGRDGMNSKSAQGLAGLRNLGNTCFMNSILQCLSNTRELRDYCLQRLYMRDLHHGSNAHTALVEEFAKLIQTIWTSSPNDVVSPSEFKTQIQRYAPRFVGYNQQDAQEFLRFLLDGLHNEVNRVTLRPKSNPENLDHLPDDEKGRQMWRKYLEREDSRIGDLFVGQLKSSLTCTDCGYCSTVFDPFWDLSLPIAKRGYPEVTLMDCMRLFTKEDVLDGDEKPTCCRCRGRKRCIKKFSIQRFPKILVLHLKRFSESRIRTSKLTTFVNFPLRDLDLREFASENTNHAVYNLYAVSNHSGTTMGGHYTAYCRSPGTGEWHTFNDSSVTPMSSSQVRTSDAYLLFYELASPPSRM
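Coupled readout: USP2-cleaved Ub-PLA2 (20nM final) turns over NBD C6-HPC (20uM final), Ex 460nm/Em 535nm after 2.5 h, time-zero read flagging artifacts. Enzyme (20nM final, pH 8.0 Tris) given 30 min RT with compound first; NEM defines full inhibition.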
Epigenetic mod – derepresses silenced GFP locus in mouse C127i cells | Potency, µM (titrated, usually from 46.1 µM), without a hit: at the top dose GFP derepression (activation) | mouse C127i GFP locus derepression, cytometry, 30 h | actives 0.09% (n = 68,000); also: % of control where 0% means no effect
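Murine C127i mammary cells carrying a silenced, stably integrated CMV-driven GFP reporter were treated with compound for 30 hours at 37 C. After PBS washes, GFP-positive cells were counted by laser-scanning microplate cytometry.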
Starred values were filed as active, the others as inactive; nt = no result given; & = joins results of further samples; [ ] = remark or other dose. Unless noted, calls follow the shape of the dose curve; as a rule, active = well fitted curve in the direction sought with a large enough effect; inconclusive = small, poorly fitted or top-dose-only effect, or another doubt; inactive = no such curve, though single readings can be large; an effect the other way counts as inactive or inconclusive. This is a subset; count on the stated rates, not on these rows.

| Compound | Ub-GFP proteasome | BRCT PPI red | BRCT inh green | USP2a inhib | Epigenetic mod |
| --- | --- | --- | --- | --- | --- |
| NCC(=O)O | 1.3% | 0.0% | -3.0% | nt | 0.0% |
| O=C(C1CCCCC1)N1CC(=O)N2CCc3ccccc3[C@@H]2C1 | 1.1%[20.5 µM] | -2.4%[34.4 µM] | -2.6%[34.4 µM] | -3.7%[17.1 µM] | 0.0%[20.6 µM] |
| CC(C)NC[C@H](O)COc1cccc2ccccc12 | 1.1% | -0.1% | 2.4% | nt | 1.4% |
| CC(C)NC[C@@H](O)COc1cccc2ccccc12 | 1.9% | -0.4% | 0.6%[3.08 µM] | -3.1% | -0.3% |
| CCNS(=O)(=O)c1ccc(C)cc1 | nt | 1.8% | -2.5% | nt | nt |
| Nc1ccc(C(=O)O)c(O)c1 | nt | 0.8%&-0.2% | 2.6%&-0.7%[3.08 µM] | 3.1%&-10.0% | 7.7%&-3.8%[20.6 µM] |
| Nc1cccc([N+](=O)[O-])c1 | nt | -0.3% | -0.1% | nt | nt |
| O=C(O)CC(O)(CC(=O)O)C(=O)O | nt | 0.6%&0.5% | -1.4%[3.08 µM] | 3.5% | nt |
| N[C@@H](CC(=O)O)C(=O)O | -2.6% | -1.9% | -2.6% | -1.4% | 0.0% |

Results in Epigenetic mod and BRCT inh green, for some of the entries so far:
compound,Epigenetic mod,BRCT inh green
CC(C)NC[C@@H](O)COc1cccc2ccccc12,-0.3%,0.6%[3.08 µM]
O=C(C1CCCCC1)N1CC(=O)N2CCc3ccccc3[C@@H]2C1,0.0%[20.6 µM],-2.6%[34.4 µM]

Quoted from the results shown, 9 compounds:
| Compound | Ub-GFP proteasome | BRCT PPI red | BRCT inh green | USP2a inhib | Epigenetic mod |
| --- | --- | --- | --- | --- | --- |
| NCC(=O)O | 1.3% | 0.0% | -3.0% | nt | 0.0% |
| O=C(C1CCCCC1)N1CC(=O)N2CCc3ccccc3[C@@H]2C1 | 1.1%[20.5 µM] | -2.4%[34.4 µM] | -2.6%[34.4 µM] | -3.7%[17.1 µM] | 0.0%[20.6 µM] |
| CC(C)NC[C@H](O)COc1cccc2ccccc12 | 1.1% | -0.1% | 2.4% | nt | 1.4% |
| CC(C)NC[C@@H](O)COc1cccc2ccccc12 | 1.9% | -0.4% | 0.6%[3.08 µM] | -3.1% | -0.3% |
| CCNS(=O)(=O)c1ccc(C)cc1 | nt | 1.8% | -2.5% | nt | nt |
| Nc1ccc(C(=O)O)c(O)c1 | nt | 0.8%&-0.2% | 2.6%&-0.7%[3.08 µM] | 3.1%&-10.0% | 7.7%&-3.8%[20.6 µM] |
| Nc1cccc([N+](=O)[O-])c1 | nt | -0.3% | -0.1% | nt | nt |
| O=C(O)CC(O)(CC(=O)O)C(=O)O | nt | 0.6%&0.5% | -1.4%[3.08 µM] | 3.5% | nt |
| N[C@@H](CC(=O)O)C(=O)O | -2.6% | -1.9% | -2.6% | -1.4% | 0.0% |
